# Screens from PubChem BioAssay.
# Choline anaer gr – growth inhibitors of anaerobic choline-fed gram-negatives, minimal medium, absorbance | Gram-negative bacterium anaerobic choline minimal medium; active compounds read low; many inactives read as strong as hits in the columns shown | calls only | hit rate 0.2% among 55,000 | AID 1963822, 2024;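 active = growth z-score on choline under -2 at 7 or 20 h with little or no fall on glycerol, limits in tiers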;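 note: stock transfer was 300 nL into about 50 µL; the organism is E. coli; final concentration not given here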
# Choline anaer gr early – recorded beside Choline anaer gr, whose call it bears; z-score; measured here: choline growth z-score, timepoint 1;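 score of optical density at 7 h as mean of two plates; lower means less growth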
# * = called active by the depositor; i = inactive; & = joins results of further samples.
cpd	Compound	Choline anaer gr early	Choline anaer gr
1	O=C(O)C1CCCN(CCC=C(c2ccccc2)c2ccccc2)C1 (stereo unspecified)	0.29&-0.14	i
2	COc1ccc(-c2noc(CN3CCC(C)CC3)n2)cc1	0.2	i
3	COc1ccccc1-c1csc(-c2nnn(-c3ccc(C)cc3)c2N)n1	0.5	i
4	O=C1CCCc2c1sc1nc3n(c(=O)c21)CCCCC3	0.43	i
5	O=C1N(c2ccc(-c3ccccc3)cc2)C(c2ccc(Cl)cc2)N2CCCN12 (stereo unspecified)	-0.63	i
6	CNC(=O)c1oc2ccc3c(c2c1C)C(=O)CC(C)(c1ccc(Cl)cc1)O3 (stereo unspecified)	-0.36	i
7	Cc1ccc(Cc2nnc(-c3ccc(NC(=O)Nc4ccc(Br)cc4)cc3)o2)cc1	-0.52	i
8	COc1ccc(-c2cc3c(=O)n(CC(=O)N4CCN(c5ccc(F)cc5)CC4)ncn3n2)cc1	1.6	i
9	O=C(Cn1nc(C(=O)Nc2ccccc2)ccc1=O)Nc1ccc(Br)cc1	0.32	i
10	COc1cc(Br)ccc1-n1c(=O)c2ccccc2c2ccccc2c1=O	-1.2	i
11	O=C(c1nnc(-c2cc(S(=O)(=O)Nc3ccc(Cl)cc3)c[nH]2)o1)N1CCOCC1	0.39	i
12	CCN(Cc1ccccc1)S(=O)(=O)c1cc(-c2nc(-c3ccccc3)no2)sc1C	0.45	i
13	Cc1ccc(C)c(S(=O)(=O)NCCCn2c(C(F)(F)F)nc3cccnc32)c1	0.47	i
14	Cc1ccc(-c2ccc(N3CCCC(C(=O)NCc4ccc(Br)cc4)C3)nn2)cc1 (stereo unspecified)	-0.17	i
15	Cc1cc(-c2cc(S(=O)(=O)N3CCN(C)CC3)c(C)s2)on1	1.2	i
16	O=C1CN(C(=O)c2cccc(Cl)c2)C(c2ccccc2)c2cc(Cl)ccc2N1 (stereo unspecified)	-0.28	i
17	Cc1cccc(NC(=O)CSCc2cc(=O)n3ccccc3n2)c1	1	i
18	CC(C)c1nnc(-c2ccc(S(=O)(=O)N3CCCC3)o2)o1	-1.3	i
19	COc1ccc(NC(=O)C2CCCN(S(=O)(=O)c3cc4c(cc3C)NC(=O)CO4)C2)cc1OC (stereo unspecified)	-0.42	i
20	Cc1cccc(CN2CC=C(C(=O)Nc3cccc(F)c3)CC2)c1	-1.3	i
21	COc1ccccc1CNC(=O)C1=C(c2ccccc2)c2cc(Cl)ccc2S(=O)(=O)N1C	1.9	i
22	Cc1ccc(CNS(=O)(=O)c2ccc(-c3nnc(C4CC4)o3)o2)o1	-0.23	i
23	CCCCSc1nnc2c(n1)OC(c1ccc(F)cc1)N(C(C)=O)c1ccccc1-2 (stereo unspecified)	0.6	i
24	CCOc1cccc(C2Nc3ccc(Cl)cc3[C@H]3OCCC[C@@H]23)c1OC (stereo partly specified)	1.4	i
25	Cn1c(=O)c(C(=O)Nc2ccccc2F)nc2ccccc21	-0.25	i
26	O=C(c1cccc(C(=O)N2CCN(c3ccccc3)CC2)n1)N1CCN(c2ccccc2)CC1	-0.69	i
27	CCCc1cc(C2CCCN2Cc2cc(Cl)ccc2O)no1 (stereo unspecified)	0.31	i
28	COCCCn1c(=O)c2sccc2n2c(CCCC(=O)N3CCN(c4ccccn4)CC3)nnc12	-0.86	i
29	COc1ccc(NC(=O)c2cc3cc(Cl)ccc3[nH]2)cc1NC(=O)c1ccccc1C	1.5	i
30	Cc1cccc(-n2ccc(=O)c(C(=O)Nc3ccc(S(N)(=O)=O)cc3)n2)c1	-0.09	i
31	O=C(NCC1COCCO1)c1cccc(NC(=O)c2nsc3ccccc23)c1 (stereo unspecified)	-0.62	i
32	Cc1ccc(CNC(=O)COc2ccccc2-c2nnc(-c3ccccc3)o2)cc1	-1.7	i
33	COc1ccc(CNC(=O)Cn2cc(-c3nnco3)c3ccccc32)cc1	0.46	i
34	CCc1ccc(NC(=O)N2CCN(c3ccc(-c4noc(C)n4)cc3)CC2)cc1	-0.68	i
35	Cc1nc2ccccc2c2c1C(=O)N(c1ccccc1C(=O)OCC(=O)C(C)(C)C)C2=O	-0.93	i
36	O=C(NC1CCCC1)C1CCN(c2nccn3nc(-c4cccs4)cc23)CC1	0.93	i
37	Cc1cccc(-c2nc(N)n(C(=O)C(C)C)n2)c1	-0.18	i
38	COc1ccc2[nH]cc(CCNC(=O)Nc3ccccc3-c3ccccc3)c2c1	0.71	i
39	COc1cccc(N2CCN(C(=O)CN(C)S(=O)(=O)c3ccc4c(c3)nnn4C(C)C)CC2)c1	0.55	i
40	CCOc1ccc(N2C(=O)c3cc(C(C)(C)C)nn3CC2(C)C(=O)NCc2ccccc2)cc1 (stereo unspecified)	-0.62	i

# Quoted at random: 3 entries already listed
cpd	Compound	Choline anaer gr early	Choline anaer gr
31	O=C(NCC1COCCO1)c1cccc(NC(=O)c2nsc3ccccc23)c1 (stereo unspecified)	-0.62	i
40	CCOc1ccc(N2C(=O)c3cc(C(C)(C)C)nn3CC2(C)C(=O)NCc2ccccc2)cc1 (stereo unspecified)	-0.62	i
35	Cc1nc2ccccc2c2c1C(=O)N(c1ccccc1C(=O)OCC(=O)C(C)(C)C)C2=O	-0.93	i

# (next part)
cpd	Compound	Choline anaer gr early	Choline anaer gr
41	COc1ccc(NC(=O)c2nnc(COCC(=O)NCCc3c[nH]c4ccc(Cl)cc34)s2)cc1	1	i
42	Cc1ccc2c(c1)NC(=O)c1cc(S(=O)(=O)N3CCCCC3)c(Cl)cc1O2	-0.54	i
43	O=C1NC(O)=NC1(c1ccccc1)c1ccccc1	-0.14&-0.26	i
44	COc1ccc(-c2noc(-c3cccnc3N(C)C)n2)cc1	-0.69	i
45	CC1=C(c2ccc(F)cc2)S(=O)(=O)N=C1N1CCCN(C(=O)NC(C)C)CC1	0.64	i
46	CCN1CCN(C(=O)C2CCCN(S(=O)(=O)c3cc(-c4noc(C5CC5)n4)sc3C)C2)CC1 (stereo unspecified)	0.78	i
47	N#Cc1cc(NC(=O)C(=O)O)c(Cl)c(NC(=O)C(=O)O)c1	0.74	i
48	COC(=O)c1sc(NC(=O)CSc2nnc3ccc4ccccc4n23)c(C(=O)OC)c1C	0.32	i
49	O=C(Nc1ccc(N2CCN(c3ccccc3)CC2)cc1C(=O)O)c1ccccc1Cl	-0.23	i
50	O=C(c1ccc(S(=O)(=O)N2CCCCC2)cc1)N(c1ccc(Cl)cc1)C1C=CS(=O)(=O)C1 (stereo unspecified)	0.74	i
51	COc1cccc(C2C3=C(CC(c4ccccc4O)CC3=O)Nc3onc(C)c32)c1OC (stereo unspecified)	-1.5	i
52	Cc1csc(-c2csc(S(=O)(=O)N3CCc4ccccc4C3)c2)n1	0.41	i
53	COc1ccc(N(C(=O)c2ccccc2OC)S(=O)(=O)c2ccc3c(c2)n(C)c(=O)n3C)cc1	0.99	i
54	CCOC(=O)c1c(S(=O)(=O)NCC(=O)Nc2cc(C)ccn2)c(C)n(CC)c1C	-0.02	i
55	COc1ccc(-c2noc(NC3CCCC3)n2)cc1	-1.5	i
56	CCCCCCCCCCC1=C(C)C(=O)C(OC)=C(OC)C1=O	-0.81	i
57	CCOc1ccc(CCNc2nc(-c3ccc(OC)c(OC)c3)no2)cc1	0.06	i
58	Cc1cc(C)c(-c2csc(Nc3ccccn3)n2)cc1C	2.1	i
59	O=C(NCc1ccc(Br)cc1)C1CCCN(c2ncc(-c3ccc(F)cc3)cn2)C1 (stereo unspecified)	0.51	i
60	Cc1nn(-c2ccc3nnc(C)n3n2)c(C)c1CCC(=O)N1CCN(c2ccccn2)CC1	0.02	i
61	CCOc1ccc(-c2nc(CSc3nc(-c4cccnc4)cc(=O)[nH]3)c(C)o2)cc1	1	i
62	CN(CC(=O)N1CCc2ccccc2C1)S(=O)(=O)c1cc2c(cc1Cl)NC(=O)CO2	0.14	i
63	COC(=O)CCC(=O)N1CCN(c2nc3ccc(C)cc3cc2-c2noc(-c3ccccc3)n2)CC1	0.99	i
64	COc1cc2c(cc1OC)CN(C(=O)c1ccc(N3C(=O)C(C)(C)CS3(=O)=O)cc1)CC2	-0.96	i
65	CC(C)CNc1oc(-c2ccc(S(=O)(=O)N(C)C)cc2)nc1C#N	-0.99	i
66	CCc1nnc(NC(=O)c2nnn(-c3ccc4noc(-c5ccc(Cl)cc5)c4c3)c2C)s1	0.06	i
67	O=C(CN1C(=O)CC(c2ccc(F)cc2)=Nc2ccccc21)Nc1ccc2c(c1)OCCO2	0.72	i
68	Cc1ccc(C2CC(=O)Nc3c2c(C)nn3-c2ccc3nnc(C)n3n2)cc1 (stereo unspecified)	-1.1	i
69	COc1ccccc1CNc1ncc2nc(-c3ccccc3)oc2n1	-0.32	i
70	O=C1COc2ccc(S(=O)(=O)NCC3CCCO3)cc2N1Cc1noc(C2CCC2)n1 (stereo unspecified)	-1.6	i
71	COc1ccccc1C1CC(=O)Nc2c1c(C)nn2-c1nncc(-c2ccc(C)cc2)n1 (stereo unspecified)	0.47	i
72	Cc1ccc(-c2nc(CN3CCCC(C(=O)NCCc4ccccc4)C3)no2)cc1 (stereo unspecified)	-0.65	i
73	O=C1NC(c2cccc(O)c2)c2c(-c3ccccc3)n[nH]c21 (stereo unspecified)	-0.55	i
74	COc1ccc(C(CNC(=O)c2cc(-c3ccccc3)on2)N2CCCC2)cc1 (stereo unspecified)	-0.16	i
75	COc1ccc(Cl)cc1NC(=O)Cn1nc(C(=O)Nc2ccccc2)ccc1=O	0.77	i
76	COc1ccccc1CN1CCN(C2CCN(C(=O)NC(C)C)CC2)C(=O)C1=O	-0.19	i
77	Cn1c(=O)c2c(C(=O)NC3CCCCC3)cc(=O)n(C)c2n(C)c1=O	-0.08	i
78	Cc1cccc(NC(=O)N2CCCC2c2c(C)noc2C)c1C (stereo unspecified)	0.75	i
79	O=C(NC1CC1)c1ccc(-n2nc(OCc3cccc(F)c3)ccc2=O)cc1	-1.9	i
80	COc1ccc(-c2cc(C(=O)N3CCCC3c3c(C)noc3C)no2)cc1 (stereo unspecified)	-0.34	i
81	CNC(=O)c1nn(-c2ccccc2Cl)nc1CO	-0.62	i
82	CC1CCN(C(=O)C2(c3ccc(NS(C)(=O)=O)cc3)CCCCC2)CC1	0.25	i
83	O=C(Nc1cc(-c2ccsc2)no1)C1CCC1	-1	i
84	CCCCC[C@H](O)CC(=O)CCc1ccc(O)c(OC)c1	0.55	i
85	Cc1ccc(C)c(S(=O)(=O)N2CCN(c3cc(=O)n4nc(-c5ccccc5)sc4n3)CC2)c1	2.9	i
86	CSc1ccc(NC(=O)c2cc3c(s2)CN(C2CC2)C3)cc1	1.7	i
87	Cc1c(-c2cc(C(=O)NC3CC3)c3ccccc3n2)cnn1-c1ccc(F)cc1	0.22	i
88	CCOC(=O)CSc1nn(C)c2nc3c(c(=O)n12)C(CC)(CC)Cc1ccccc1-3	0.51	i
89	Clc1ccc(COc2cccc3ccc(N4CCCC4)nc23)cc1	2.1	i
90	COCCCN1CCc2nc(SCc3ccc(F)cc3)[nH]c(=O)c2C1	-2.6	i

# The list goes on.
cpd	Compound	Choline anaer gr early	Choline anaer gr
91	CCCn1nnc(NCc2ccc(-c3cc(Cl)cc(Cl)c3)o2)n1	1.1	i
92	Fc1ccc([C@@H]2CCNC[C@H]2COc2ccc3c(c2)OCO3)cc1	0.07&-1.7&-2.1&-0.59	i
93	COc1ccc(-c2cc3nccc(-c4cc(C)ccc4O)n3n2)cc1	0.16	i
94	CCn1c(=O)c(N2CCCC(C(=O)O)C2)nc2cccnc21 (stereo unspecified)	0.3	i
95	O=C(Nc1ccc(Cl)cc1)c1cnc2ccccn2c1=O	-0.44	i
96	CC(C)c1cc(C(=O)NCc2nc3ccccc3[nH]2)nn1C1CCS(=O)(=O)C1 (stereo unspecified)	-1.8	i
97	COc1ccc2oc(-c3noc(COc4ccc(F)cc4)n3)c(C)c2c1	1.8	i
98	O=C(Nc1nccs1)C1CC(=O)N(CCc2c[nH]c3ccc(Cl)cc23)C1 (stereo unspecified)	-0.08	i
99	Cc1ccc(C2C3=C(CC(c4ccccc4O)CC3=O)Nc3onc(C)c32)cc1 (stereo unspecified)	-0.26	i
100	CCOc1ccc(NC(=O)C2CCCN2S(=O)(=O)c2ccc3c(c2)CC(C)N3C(C)=O)cc1 (stereo unspecified)	0.45	i

# Complete entries, quoted from the list. Order of screens: Choline anaer gr early	Choline anaer gr
# COc1cccc(N2CCN(C(=O)CN(C)S(=O)(=O)c3ccc4c(c3)nnn4C(C)C)CC2)c1 across the screens: 0.55	i
# O=C1CCCc2c1sc1nc3n(c(=O)c21)CCCCC3 across the screens: 0.43	i

# (list continues)
cpd	Compound	Choline anaer gr early	Choline anaer gr
101	CC(C)c1nc(CN2CCCCCCC2)cc(=O)[nH]1	0.24	i
102	COc1ccc(NC(=O)c2cccc(-c3nc(-c4ccc(F)cc4)no3)c2)c(OC)c1	0.29	i
103	CCc1ccc(S(=O)(=O)c2cnc(N3CCc4ccccc4C3)nc2N)cc1	-1.4	i
104	Cc1noc(Cn2c(=O)c3ccccc3n(CC(=O)Nc3ccc(F)cc3)c2=O)n1	-0.8	i
105	CC1c2cccn2-c2sc3c(c2CN1C(=O)Nc1ccccc1Cl)CCN(C)C3 (stereo unspecified)	-0.98	i
106	CCn1c(SC)nnc1-c1nn(C)c2c1CN(C(=O)C1CCC1)CC2	-0.98	i
107	CCC(C(=O)Nc1cc(OC)ccc1OC)n1c(C(=O)c2cccc(F)c2)nc2ccccc21 (stereo unspecified)	0.26	i
108	Cc1ccc(N(C(=O)C2CCC(=O)N2)C2(C(=O)NC3CCCCC3)CCCCC2)cc1 (stereo unspecified)	-0.47	i
109	O=C(c1ccc2cccc(O)c2n1)N1CCN(c2ccccn2)CC1	-0.69	i
110	O=C(CSc1nc(=O)n(C2CCS(=O)(=O)C2)c2c1CCC2)c1ccc(Cl)cc1 (stereo unspecified)	-0.41	i
111	Cc1ccc(S(=O)(=O)N2CCC(c3noc(-c4ccccc4)n3)CC2)cc1C	-1.3	i

# An excerpt of these results, field by field:
14. Cc1ccc(-c2ccc(N3CCCC(C(=O)NCc4ccc(Br)cc4)C3)nn2)cc1 (stereo unspecified)
  Choline anaer gr early = -0.17	Choline anaer gr = i

12. CCN(Cc1ccccc1)S(=O)(=O)c1cc(-c2nc(-c3ccccc3)no2)sc1C
  Choline anaer gr early = 0.45	Choline anaer gr = i

# Some of the compounds tested; rates above refer to the full screens.
